From PubChem BioAssay
SARS PLpro yeast = blocks SARS-CoV papain-like protease in a yeast assay; Potency, µM (titrated, usually from 32.9 µM), for inactives: top-dose activity, positive = growth rescue; S. cerevisiae expressing SARS-CoV PLpro, growth rescue; control for the full effect not named in the record; hit rate 0.19% among 330,000; further: 0% is about no effect; nearly all actives have a fitted effect of over 55% in size; growth read by luminescence after 48 h
LASV entry inh = blocks Lassa virus binding to or entry into cells; Lassa virus pseudotype entry inhibition, cell reporter; control for the full effect not named in the record; Potency, µM (series often up to 37.9 µM), for the others: top-dose activity change, negative = inhibition, hits mostly inhibitors; hit rate 1.2% among 300,000; active means well fitted inhibition curve with a large enough effect; inconclusive means small, poorly fitted or top-dose-only effect, or effect the other way; inactive means flat fitted curve, though single readings scatter; tested in HEK293 cells; further: on the % scale 0 is the no-effect control and ±100 the full control effect; nearly all actives have a fitted effect of over 50% in size; luciferase read-out
RE007 growth inh = less growth of the S. pombe RE007 Vpr strain; hit rate 0.21% among 360,000; S. pombe RE007 Vpr strain, BacTiter-Glo ATP luminescence, 24 h; control for the full effect not named in the record; Potency, µM (series often up to 92.2 µM), without a hit: at the top dose activity change, negative = less growth; AID 651644; active = well fitted falling curve with a large enough effect; inconclusive = small, poorly fitted or top-dose-only effect; inactive = no such curve, though single readings can be large or run the other way;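 further: on the % scale 0 is the no-effect control and ±100 the full control effect; nearly all actives have a fitted effect of over 50% in size; the assay follows cell death caused by Vpr and the record does not say whether a fall means rescue or toxicity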
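Fission yeast RE007 carrying one integrated HIV-1 vpr copy, seeded at OD 0.01 in PMG+AL medium with 23 nL pinned compound. Grown 24 h at 30 degrees; viability read by BacTiter-Glo luminescence after 5 min.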
2A StopGo = lowers the luciferase signal of an FMDV 2A StopGo reporter. human cells with a luciferase reporter of 2A StopGo recoding; control for the full effect not named in the record. Potency, µM (highest dose often 57.9 µM), without a hit: at the highest dose signal change, negative = less light. hit rate 1.2% among 410,000; active = well fitted falling curve with a large enough effect; inconclusive = small, poorly fitted or top-dose-only effect; inactive = no such curve, though single readings can be large or run the other way; tested in HEK293T cells; further: on the % scale 0 is the no-effect control and ±100 the full control effect; nearly all actives have a fitted effect of over 45% in size; luciferase light after 4 h
NS1 inh = influenza NS1 inhibition | S. cerevisiae slowed by influenza A NS1, growth recovery by OD600 | Potency, µM (doses to about 46.1 µM), for inactives: at the top dose activity, positive = more growth | hit rate 0.4% among 270,000 | AID 2326; further: actives are rising curves; nearly all actives have a fitted effect of over 50% in size
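In this qHTS, NS1 from influenza A is expressed in budding yeast, where it slows growth. Cells are switched from glucose to 2% galactose medium (pH 6.0, -URA), treated with compound, and growth recovery is read at OD600.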
MARV entry inh = blocks Marburg virus binding to or entry into cells | Marburg virus pseudotyped entry inhibition, cell reporter; control for the full effect not named in the record; about a third of the inactives were read at about 46 µM | Potency, µM (highest dose often 37.8 µM), for the others: top-dose activity change, negative = inhibition, hits mostly inhibitors | hit rate 1.8% among 300,000 | AID 540276; active = well fitted inhibition curve with a large enough effect; inconclusive = small, poorly fitted or top-dose-only effect, or effect the other way; inactive = flat fitted curve, though single readings scatter; tested in HEK293 cells; about a fifth of its hits are not listed in these tables; further: on the % scale 0 is the no-effect control and ±100 the full control effect; luciferase read-out
Cruzain noTriton = blocks cruzain activity in detergent-free assay. AID 1476. purified cruzain, Z-FR-AMC fluorescence, no detergent. Potency, µM, inactives show max response, negative = inhibition, most hits filed as inhibitors. P25779. hit rate 2.3% among 200,000; active means well fitted curve in the direction sought with a large enough effect; inconclusive means small, poorly fitted or top-dose-only effect, or another doubt; inactive means no such curve, though single readings can be large; an effect the other way counts as inactive or inconclusive;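 further: plate controls were enzyme without inhibitor for no effect and buffer without enzyme for full effect; nearly all actives have a fitted effect of over 40% in size; top concentration of the series not given in the record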
Target sequence (P25779 123-467 limits assumed): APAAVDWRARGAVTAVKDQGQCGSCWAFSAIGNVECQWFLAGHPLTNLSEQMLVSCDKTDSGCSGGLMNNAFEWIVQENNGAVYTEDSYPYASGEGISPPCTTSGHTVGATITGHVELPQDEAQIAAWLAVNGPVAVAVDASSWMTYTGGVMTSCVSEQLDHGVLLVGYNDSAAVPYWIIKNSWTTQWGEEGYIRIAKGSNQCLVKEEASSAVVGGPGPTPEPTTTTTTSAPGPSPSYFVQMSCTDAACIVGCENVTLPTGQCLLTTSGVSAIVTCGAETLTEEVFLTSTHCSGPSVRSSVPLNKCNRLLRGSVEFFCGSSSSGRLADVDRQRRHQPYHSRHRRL
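Detergent-free condition (0.00005% Triton X-100) in acetate buffer pH 5.5 with DTT. 1.5 nM enzyme and compound were pre-mixed 15 min, then 2 uM Z-FR-AMC substrate added; reaction progress from fluorescence change between first and third reads (60 s).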
Cruzain inh Det = inhibitors of Trypanosoma cruzi cruzain with detergent; purified cruzain, Z-FR-AMC fluorescence, 0.01% Triton; Potency, µM, without a hit: max response, negative = inhibition, most hits filed as inhibitors; hit rate 0.43% among 200,000; AID 1478; active means well fitted curve in the direction sought with a large enough effect; inconclusive means small, poorly fitted or top-dose-only effect, or another doubt; inactive means no such curve, though single readings can be large; an effect the other way counts as inactive or inconclusive;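 further: plate controls were neutral wells for no effect and buffer without enzyme for full effect; nearly all actives have a fitted effect of over 40% in size; top concentration of the series not given in the record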
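Cysteine protease activity tested under reducing, mildly acidic conditions (100 mM sodium acetate pH 5.5, 5 mM DTT) plus 0.01% Triton X-100. Cruzain 1.5 nM; substrate Z-FR-AMC 2 uM; 15 min compound preincubation at room temperature.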
Active calls of the source: *; ? = inconclusive; nt = no result given; [ ] = dose if it differs, or a comment. Unless noted, the call rests on the fitted dose curve; in most records, active means well fitted rising curve with a large enough effect; inconclusive means small, poorly fitted or top-dose-only effect; inactive means no such curve, though single readings can be large or run the other way. Potency means the concentration at half of the fitted maximal effect. Random draw from the library. About 4.6% of those tested had a hit in this group.

SMILES | SARS PLpro yeast | LASV entry inh | RE007 growth inh | 2A StopGo | NS1 inh | MARV entry inh | Cruzain noTriton | Cruzain inh Det
O=C(NCc1cccnc1)c1ccccc1NS(=O)(=O)c1ccccc1 | -1% | 16% | -5% | -15% | 9% | 21% | nt | nt
O=C(NN=C1CCCC1)c1ccc(Cl)cc1 | -1% | nt | -7% | 20% | 2% | nt | nt | nt
CCOC(=O)C1=C(O)c2ccccc2C(=O)/C1=C\c1ccc(CC)cc1 | -45% | ? | ? | ? | -40% | 2.1µM* | -7% | -6.8%
Cc1ccccc1N1C(=O)C(Cc2ccc(F)cc2)S/C1=C(\C#N)C(N)=O (stereo not drawn) | 1% | ? | -24% | -8% | 9% | ? | nt | nt
CN(C)S(=O)(=O)c1cccc(NC(=S)Nc2cccc3cnccc23)c1 | -1% | ? | -22% | ? | -7% | ? | nt | nt
CCC(=O)Nc1ccc(C(=O)CSc2nnc(-c3ccc(NS(=O)(=O)CC)cc3)o2)cc1OC | 6% | -18% | 4% | 9% | 8% | -2%[46.1 µM] | nt | nt
COc1ccc2cc(S(=O)(=O)Nc3ccccn3)ccc2c1 | -1% | 0% | 4% | 42%[activator] | -14% | 13%[46.1 µM] | nt | nt
Cc1ccc(CN2CCc3c(OCc4ccc(F)cc4)cccc3C2=O)cc1 | -37% | 7.1µM* | 0% | ? | -18% | ? | 0% | -8.4%
COC(=O)C1=C(C)N(c2ccc(F)cc2)/C(=C/c2ccc(O)cc2)C1=O | -4% | ? | -2% | ? | nt | 6%[46.1 µM] | nt | nt
COC(=O)C1C(c2ccc(OC)cc2)Nc2nnc(C(F)(F)F)n2C1(C)O (stereo not drawn) | 0% | 4% | 3% | -7% | -3% | -15% | nt | nt
CCCC(=O)OC1CCS(=O)(=O)c2sccc21 (stereo not drawn) | 1% | -2%[46.1 µM] | -3% | -2% | 1% | 4%[46.1 µM] | nt | nt
COc1ccccc1NC(=O)CSc1nc(-c2ccccc2F)nc2cc(=O)[nH]n12 | nt | 26%[46.1 µM] | nt | -22% | nt | nt | -5% | 2.7%
CC(=O)c1c(C)oc2c1C(=O)c1ccccc1C2=O | 26% | -11% | ? | ? | -16% | -2% | -2% | -2.5%
O=C(CCc1nc(-c2ccccc2F)no1)Nc1cccc(C(F)(F)F)c1 | nt | 12%[46.1 µM] | nt | -23% | nt | -2%[46.1 µM] | -3% | -12%
CN(C)CC(O)c1ccc(C=Cc2ccc(Cl)cc2)cc1 (stereo not drawn) | nt | ? | ? | 20% | nt | ? | nt | nt
Cc1cccc(CN2CCC(CNc3ncnc4onc(-c5ccc(Cl)cc5)c34)CC2)c1 | nt | -4%[46.1 µM] | nt | -17% | nt | -3%[46.1 µM] | -4% | 0.3%
COc1ccc(OC)c(/C=C/c2nc3ccccc3[nH]c2=O)c1 | -5% | 7% | -9% | -19% | -7% | ? | nt | nt
Cc1cc(NC(=O)C2CC=CCC2C(=O)O)ccc1NC(=O)c1ccccc1 (stereo not drawn) | 24% | -24%[46.1 µM] | 10% | -3% | 3% | 2%[46.1 µM] | nt | nt
COC(=O)c1ccccc1NC(NC(=O)c1ccco1)C(=O)c1ccc(C)cc1 (stereo not drawn) | 9% | 17% | 0% | 3% | -13% | 5% | ? | -0.3%
CCOc1ccc2ccccc2c1C(=O)NCC(c1ccc(N(C)C)cc1)N(C)C (stereo not drawn) | -3% | nt | -7% | 4% | 0% | nt | nt | nt
Clc1ccc(-c2ccc(-c3nn4c(-c5ccco5)nnc4s3)o2)cc1 | nt | -15% | -4% | -8% | -16% | -9% | nt | nt
CCn1c(CCNC(=O)c2ccc(Cl)cc2)nnc1SCC(=O)NC1CCCC1 | 5% | -2% | 8% | -14% | -14% | 7% | 5% | 3.7%
COc1ccc(Cl)cc1C(=O)NNC(=O)CSc1nnnn1C | -3% | nt | -17% | -7% | -1% | 2%[46.1 µM] | nt | nt
CCC(=O)c1ccc(OCC(O)Cn2cnc3ccccc32)cc1 (stereo not drawn) | -3% | 8% | 0% | ? | 11% | 10% | -4% | -2.1%
Oc1c(Br)cc(-c2ccccc2)cc1Br | nt | 6%[46.1 µM] | -20% | -7% | nt | 9%[46.1 µM] | nt | nt
Cc1cc(C(=O)N2CCc3ccccc3C2)no1 | -5% | nt | 14% | 0% | 4% | nt | nt | nt
Cc1ccc(Cl)c(NC(=O)COC(=O)c2cc[n+]([O-])cc2)c1Cl | 5% | 2% | 1% | -17% | nt | ? | nt | nt
O=C(CSc1nc2c(c(=O)[nH]1)CCC2)Nc1ccccc1C(F)(F)F | nt | -11%[46.1 µM] | nt | -5% | nt | 21%[46.1 µM] | -4% | -5.0%
CCCCNC(=O)Nc1nc2ccc(CC)cc2s1 | 0% | -17% | 12% | 37%[activator] | nt | ? | nt | nt
CCOc1ccc(C(=O)CC(Sc2ccc(C)cc2)C(=O)O)cc1 (stereo not drawn) | 0% | -3% | 0% | -11% | 1% | ? | nt | nt
COc1ccc(C(=O)N2CCCC(N3CCN(c4ccccc4F)CC3)C2)c(OC)n1 (stereo not drawn) | 1% | nt | 8% | -21% | -18% | nt | nt | nt
COc1ccc(NC(=O)c2ccc(=O)[nH]c2)cc1S(=O)(=O)N1CCCCC1 | 18% | -14% | nt | nt | 11% | 32% | -2% | 1.5%
Cc1c([C@@H]2C[C@H]3CN(Cc4cccc(Cl)c4)C(=O)[C@]34CCCN24)cnn1C | 0% | 2%[46.1 µM] | -15% | -21% | -1% | -2%[46.1 µM] | nt | nt
Cc1cc(NC(=O)C2CCCN(S(=O)(=O)c3ccc(Br)s3)C2)ccc1Br (stereo not drawn) | nt | -11%[46.1 µM] | nt | -23% | nt | -8%[46.1 µM] | ? | -3.2%
CCOc1cc(N2CCOCC2)c(OCC)cc1NC(=O)COc1ncnc2ccc(Br)cc12 | 4% | 5% | -3% | ? | 4% | ? | -9% | 1.5%
C1CCC2S[C@H]3CCCCC3NC2C1 (stereo partly drawn) | 0% | -9% | -3% | 2% | 2% | 8%[46.1 µM] | nt | nt
CCN(CC)CCN1C(=O)C(=O)/C(=C(/O)c2c(C)[nH]c(C(=O)OC)c2C)C1c1cccc(OC)c1 (stereo not drawn) | -1% | 8% | 3% | 20% | 2% | 24% | 5% | -2.7%
C=CCn1c(C)csc1=Nc1ccc(C(=O)O)cc1 | 0% | -8%[46.1 µM] | 3% | 1% | nt | 4%[46.1 µM] | nt | nt
CCS(=O)(=O)N1Cc2ccccc2CC1C(=O)NCC12CC3CC(CC(C3)C1)C2 (stereo not drawn) | -1% | -20% | -3% | -20% | -6% | ? | 9% | -4.7%
COc1cc(/C=N/Nc2nn3cnnc3c3ccccc23)ccc1O | 3% | ? | -15% | -5% | 14% | -29% | -19% | 1.5%
Cc1cccc2cc(CN(Cc3nnnn3C3CCCCC3)C3CCCC3)c3nnnn3c12 | -56% | ? | -24% | -20% | 12% | ? | -14% | -4.1%
CC(=O)N1CCN(c2ccc(NC(=O)C(c3ccccc3)c3ccccc3)cc2)CC1 | -6% | 16%[46.1 µM] | 10% | -10% | 9% | 1%[46.1 µM] | nt | nt
CN(C)NC(=S)Nc1ccc(Cl)cc1 | 11µM* | 4% | -8% | nt | 30% | 15% | 17% | 5.8%
Cc1ccccc1OCC(=O)Nc1ccc(-c2nc3ccccc3o2)cc1 | nt | 27%[46.1 µM] | nt | 10% | nt | nt | 8% | -0.3%
O=C1OC2(CCCCC2)OC(=O)C1=CNc1nccs1 | 0% | 2% | -3% | -16% | -22% | 13% | -5% | -4.0%
Cc1nc(NC(=O)/C=C/c2ccccc2)sc1C(=O)Nc1ccccc1Cl | 6% | 15% | 12% | 22% | 14% | -2% | 10µM* | -3.5%
O=C(CN1C(=O)NC2(CCCCC2)C1=O)Nc1cc(C(F)(F)F)ccc1N1CCCC1 | -3% | 1% | 22% | -7% | nt | 2% | nt | nt
CC(=O)Nc1nonc1-c1nnc(SCC(=O)Nc2ccc(F)cc2F)n1-c1ccccc1 | nt | -6%[46.1 µM] | nt | -14% | nt | 6%[46.1 µM] | 0% | -3.4%
Cc1ccc(S(=O)(=O)N2CCC(C(=O)OCC(=O)Nc3cc(S(C)(=O)=O)ccc3Cl)CC2)cc1C | 2% | -9%[46.1 µM] | -5% | 2% | 13% | ? | nt | nt
CCOc1cc(/C=N/NC(=O)C(=O)NC2CC2)cc(Br)c1O | 13% | 12% | 1% | -14% | 4% | ? | ? | -0.2%
O=C1CC(NCCC2=CCCCC2)C(=O)N1c1cccc(Cl)c1Cl (stereo not drawn) | -18% | nt | nt | nt | -19% | nt | -3% | -9.7%
COc1cccc(CSc2nc3ccncc3[nH]2)c1 | -1% | ? | ? | -25% | 21% | ? | nt | nt
C/C(Cn1nc([N+](=O)[O-])cc1C)=N\NC(=O)c1ccc(C(C)(C)C)cc1 | -3% | -9% | 11% | 4% | 9% | 15% | 17% | 5.7%
CCOc1ccc(CN2CCNC(=O)C2CC(=O)NCc2csc(C)n2)cc1 (stereo not drawn) | 1% | 12% | -2% | -11% | 16% | ? | nt | nt
COCc1cc(C)nc(NCCO)c1C#N | nt | 11% | -11% | -5% | 17% | 2% | -3% | -0.7%
CCOc1ccc(/C=N/Nc2ccccn2)cc1OC | 3% | -12% | -3% | 19% | nt | 24%[46.1 µM] | nt | nt
O=C(NCCC(=O)N1CCCC(C(F)(F)F)C1)c1ccc(Br)cc1 (stereo not drawn) | 1% | -2% | -2% | 0% | -9% | 3% | nt | nt
Cc1cccc(-c2nc(CS(=O)CC(=O)N3CC(C)CC(C)C3)c(C)o2)c1 (stereo not drawn) | 1% | -16%[46.1 µM] | 1% | -16% | -7% | -2%[46.1 µM] | nt | nt
O=C(Nc1ccc2c(c1)OCCO2)c1cccn(Cc2cccc(F)c2)c1=O | nt | -7%[46.1 µM] | nt | 10% | nt | nt | 21% | -9.2%
Cc1nnc(SCC(=O)c2ccc(Br)cc2)s1 | 0% | 3% | -15% | 6% | 0% | 10% | nt | nt
O=[N+]([O-])/C=C/c1cn(Cc2ccccc2)c2ccccc12 | -27% | -30% | 13% | -40% | -99% | ? | -5% | -1.2%
